Screening data (PubChem)
gsp antag = antagonizes gsp, the McCune-Albright syndrome mutation; gsp-mutant cells, cAMP HTRF, 30 min; control for the full effect not named in the record; Potency, µM (top dose mostly 76.9 µM), inactives show at the top dose activity change, negative = inhibition, usual class: inhibitors; 340,000 compounds, 0.4% hits; active = falling curve of any shape with a large fitted effect; inconclusive = falling curve, mostly with a smaller effect; inactive = flat or rising curve; cell line not stated here;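 also: intracellular cAMP measured with PDE inhibitor Ro 20-1724 present during compound exposure; potency is read from the fitted curve at half-maximal effect; % is scaled to controls: 0 for no effect and ±100 for the full control effect; nearly all actives have a fitted effect of over 65% in size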
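Measurement of cellular cAMP by homogeneous time-resolved fluorescence following a 30 min compound exposure at 37C. The PDE inhibitor […] was present throughout; the assay buffer was DPBS with 0.05% BSA and 0.005% Tween 20.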
D2 ag = activates the human D2 dopamine receptor; AID 624465; DiscoveRx PathHunter D2 beta-arrestin, luminescence, 90 min; 100% = 57 uM dopamine signal; activation, % (test concentration not listed); 360,000 compounds, 0.084% hits; in the data active = activation above about 40%; inconclusive = about 15% to 40%; inactive = below about 15%; also: compound concentration not given in the record; the text of the record calls up to 30% inactive
Target sequence (P14416 whole entry, looked up): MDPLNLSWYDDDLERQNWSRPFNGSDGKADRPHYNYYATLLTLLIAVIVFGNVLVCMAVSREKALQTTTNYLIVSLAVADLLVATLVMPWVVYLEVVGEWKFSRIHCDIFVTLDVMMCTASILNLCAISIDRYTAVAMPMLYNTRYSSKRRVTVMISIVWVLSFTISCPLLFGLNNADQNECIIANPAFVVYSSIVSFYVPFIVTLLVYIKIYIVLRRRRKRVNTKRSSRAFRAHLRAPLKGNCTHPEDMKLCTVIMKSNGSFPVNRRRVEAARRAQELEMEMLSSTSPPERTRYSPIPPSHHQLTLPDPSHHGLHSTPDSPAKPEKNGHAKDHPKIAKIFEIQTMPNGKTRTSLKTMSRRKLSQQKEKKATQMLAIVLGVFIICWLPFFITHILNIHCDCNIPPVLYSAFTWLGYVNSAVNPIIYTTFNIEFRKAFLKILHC
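DiscoveRx PathHunter D2 beta-arrestin cells (2,100/well) attached overnight, then compound-stimulated 90 min at 37 C in HBSS/10 mM HEPES/0.1% Tween-20 buffer; beta-galactosidase complementation read by luminescence after 1 h at ambient temperature. Dopamine 57 uM final (EC100) as control.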
gsp ag = agonists of gsp mutant (McCune-Albright syndrome); 340,000 compounds, 0.13% hits; gsp mutant cells, cAMP HTRF, 30 min; control for the full effect not named in the record; AID 624287; Potency, µM (titrated, usually from 76.9 µM), without a hit: top-dose activation (cAMP increase), most hits filed as activators; active = well fitted activation curve with a large enough effect; inconclusive = small, poorly fitted or top-dose-only effect, or another doubt; inactive = no such curve, though single readings can be large or run the other way; cell line not stated here;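 also: phosphodiesterase inhibitor Ro 20-1724 added with compounds to block cAMP breakdown; potency is read from the fitted curve at half-maximal effect; nearly all actives have a fitted effect of over 60% in size; about a fifth of the inactives were tested at one dose only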
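Cells stably selected in G418 were plated at 2000/well, grown 16-24 hr, then given compounds in DMSO with the PDE inhibitor […] (300 uM solution added) for 30 min at 37C; cAMP was read by HTRF.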
Six1-Eya2 blk = blocks human Six1 binding to Eya2; Q15475+O00167; AlphaScreen GST-Six1/His-Eya2 binding, biochemical; hits give low values; control for the full effect not named in the record; activity change, % (no concentration beside the values); 360,000 compounds, 0.56% hits; AID 651725; in the data active = activity change below about -65%; inconclusive = about -30% to -65%; inactive = above about -30%; also: % is scaled to controls: 0 for no effect and ±100 for the full control effect
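Compounds are tested against tagged Six1 and Eya2 proteins bridged by glutathione donor and nickel acceptor beads; after a one-hour incubation at 37 °C without light, AlphaScreen emission is recorded.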
CtBP-E1A blk = CtBP/E1A binding inhibition. AlphaScreen GST-E1A/His-CtBP binding, 1536-well; hits give low values; control for the full effect not named in the record. activity change, % (no concentration beside the values). 340,000 compounds, 0.49% hits; in the data active means activity change below about -65%; inconclusive means about -30% to -65%; inactive means above about -30%; also: % is scaled to controls: 0 for no effect and ±100 for the full control effect
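GST-E1A and His-tagged CtBP (125 nM each as 5X stock) were preincubated with pin-transferred compound for 2 h at 37 °C in the dark, then glutathione donor and nickel acceptor beads were added for 1 h before AlphaScreen reading.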
D2 potentiator = positive allosteric modulators of human D2 dopamine receptor; P14416; DiscoveRx D2 beta-arrestin cells, luminescence, 90 min; 100% = 57 uM dopamine signal; potentiation, % (test concentration not listed); 360,000 compounds, 0.23% hits; active = potentiation of 50% or more; inconclusive = 30% to 50%; inactive = 30% or less;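 also: compound concentration not given in the record; tested on top of an EC20 dose of dopamine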
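PathHunter D2 cells, attached overnight at 37 deg C, received compound in DMSO plus dopamine at EC20 (50 nM final) for 90 min at 37 deg C. Beta-arrestin recruitment was read as luminescence after 1 h with detection reagent at ambient temperature.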
* = called active by the depositor; ? = inconclusive; / = not tested or not shown; [ ] = dose if it differs, or a comment.

SMILES	gsp antag	D2 ag	gsp ag	Six1-Eya2 blk	CtBP-E1A blk	D2 potentiator
COc1ccc(NC(=O)NC23CC4(C)CC(C)(CC(C)(C4)C2)C3)cc1	-10%	-3.2	-34%[inhibitor]	0	-2	5
O=C(Nc1ccc(N2CCOCC2)cc1)c1cc2ccccc2o1	-8%	5.4	-31%[inhibitor]	-3	0	21
Cc1c(Cl)cccc1NC(=S)/C(=C(\[O-])c1ccc(Cl)s1)[n+]1ccccc1	-12%	-1.1	9%	-13	-10	-27
CCn1c(-c2cccnc2Cl)nc2cc(C)c(C)cc21	8%	-5.0	8%[15.4 µM]	14	-13	-11
CCOC(=O)c1c(N2C(=O)C3CC(C)=C(C)CC3C2=O)sc(C)c1C (stereo not drawn)	-15%	0.1	23%	1	-3	3
CS(=O)(=O)N1CCN(c2ccc([N+](=O)[O-])c3cccnc23)CC1	-16%	-6.4	?	-2	-4	0
C[C@@H]1CN([C@H](C)CO)C(=O)c2cc(NC(=O)C3CCCCC3)ccc2O[C@@H]1CN(C)Cc1ccncc1	6%	-2.9	/	2	5	-7
CC(C)CCNC(=O)C1CC2Cn3c(nc4cc(Cl)c(Cl)cc43)C2N1C (stereo not drawn)	-18%	-3.3	/	3	1	-9
CCOc1ccc(C(C)NC(=S)NC2CCCCC2)cc1 (stereo not drawn)	-11%	1.3	-1%	-4	-1	14
CCN1CCN(CCCNc2ncnc3nc[nH]c23)CC1	4%	0.1	?	7	2	-6
COc1cc2[nH]c(=O)n(Cc3ccc(C(=O)NCCCN4CCC(C)CC4)cc3)c(=O)c2cc1OC	11%	0.9	-25%	-3	-11	-12
O=C(c1c[nH]c2ccc(F)cc2c1=O)N1CCCCCC1	6%	-2.2	-11%	6	-3	-7
CC(/C=N/NC(=O)c1cc(-c2ccc(Cl)cc2)nc2ccccc12)=C\c1ccco1	-6%	-1.3	2%	-19	-18	-14
Cc1ccc(NC(=O)[C@H](Cc2ccccc2)NC(=O)C2CCNCC2)cc1	3%	-1.0	0%	2	/	-12
CCOc1ccccc1N1CCN(C(=O)c2c(CC)noc2C)CC1	-8%	-0.3	1%	3	5	-11
O=C(NC1C2CC3CC(C2)CC1C3)C1CCCCC1 (stereo not drawn)	-14%	7.3	-9%[15.4 µM]	5	10	0
COC(=O)c1nc2cc3c(cc2c(C)c1C(=O)OC)OCO3	5%	-2.8	-23%	-2	11	-2
CC(C)(C)C(=O)Nc1ccc(NC(=O)C(C)(C)C)cc1	4%	-1.5	?	5	-7	-9
CN(C)CCN(C(=O)/C=C/c1cccs1)c1nc2c(F)cc(F)cc2s1	-5%	0.0	2%[15.4 µM]	-19	0	-18
COc1ccc(NC(=S)Nc2cccc(C)n2)cc1	2%	3.6	29%	-9	-20	0
Cc1ccccc1N1CCN(CCN2C(=O)CC(=C3c4ccccc4-c4ccccc43)C2=O)CC1	3%	-2.0	20%	-6	-7	-4
CCC(C)NC(=O)c1cn(-c2cccc(OC)c2)c(=O)c2ccccc12 (stereo not drawn)	5%	4.6	?	5	5	0
CCCc1nc2c(c(=O)c3ccccc3n2C)c(=O)n1C1CCCCCC1	-4%	-1.5	?	-3	-16	-7
COc1ccc(NC(=O)CC2C(=O)N(C)C(=S)N2Cc2cccs2)cc1 (stereo not drawn)	-16%	-3.9	6%[15.4 µM]	-17	-1	-8
CN(C)S(=O)(=O)c1cccc(NC(=O)COC(=O)COc2ccc(Br)cc2)c1	3%	-2.2	-44%[inhibitor]	7	-4	-9
O=C(Nc1ccc(F)cc1)N(CCCN1CCOCC1)Cc1cc2cc3c(cc2[nH]c1=O)OCO3	-3%	2.4	?	-2	-3	-18
NS(=O)(=O)c1ccc(NC(=S)Nc2nn(Cc3ccc(Cl)cc3Cl)cc2Cl)cc1	?	-1.4	-80%[inhibitor]	6	-3	-8
Cc1c(NC(=O)C(C)OC(=O)c2nc(Cl)ccc2Cl)c(=O)n(-c2ccccc2)n1C (stereo not drawn)	0%	-2.0	-2%	6	-2	-6
COc1ccc(Nc2nc(-c3sc(C)nc3C)cs2)cc1	11%	-2.5	4%	0	/	-11
Cc1cc(C)cc(NC(=O)CSc2ccccc2)c1	-6%	-4.0	2%	13	0	-3
CCN(CCCNC(=O)C1CCN(S(=O)(=O)CC)CC1)c1ccccc1	2%	-4.5	-3%	0	4	-9
CSc1ccccc1NC(=O)CN(C)Cc1ccc(Br)cc1	?	-4.1	28%[15.4 µM]	20	20	-17
CCSc1nnc(NC(=O)NC(C)(C(F)(F)F)C(F)(F)F)s1	-11%	3.7	-18%	3	6	-11
COc1ccc(S(=O)(=O)Nc2ccc(F)cc2F)cc1C(=O)N1CCOCC1	-15%	-0.8	1%[15.4 µM]	0	-11	-7
CC1=CCC(C(C)(C)NC(=O)c2ccccc2)C/C1=N\O (stereo not drawn)	-9%	-1.9	?	3	6	0
Clc1ccc(C2=NNC(=NCc3ccccc3)SC2)cc1	7.1µM*	-16	12%[15.4 µM]	-22	?	-33
O=C(NCc1ccccc1)c1ccc(C(=O)NCc2ccccc2)cc1	-15%	3.9	13%	6	8	3
CC1CCCCN1C(=O)CN1CCC(c2nc3ccc(Cl)cc3[nH]2)CC1 (stereo not drawn)	3%	-3.5	-21%	0	/	-7
CC(=O)N(C)C1(c2nnnn2CCOC(=O)Nc2ccc(Cl)cc2)CCCCC1	5%	-0.9	-7%	10	-6	-4
COc1ccc(-n2ncc3c(N4CCC(C)CC4)ncnc32)cc1	-21%	6.3	-21%	6	-19	-2
Cn1c(SCC(=O)N2CCc3ccccc32)nc2cccnc21	-32%	-2.4	?	0	-1	-3
COc1cc(C(=O)Nc2nc3ccccc3s2)ccc1OCc1c(C)noc1C	18%	-2.2	-69%[inhibitor]	-7	-9	-12
COc1cccc(C(C)(O)c2nc(-c3ccc(OC)nc3)cs2)c1 (stereo not drawn)	/	5.1	/	-3	4	-10
COc1ccccc1NC(=O)NC1(C(=O)N2CCC(O)CC2)CCCCC1	7%	-1.9	-7%	-6	0	-10
CC(=O)N(CC(=O)O)c1ccccc1	6%	0.8	-20%	2	-7	-14

In a second layout: results already given.
compound: CC(=O)N(CC(=O)O)c1ccccc1
  gsp antag: 6%
  D2 ag: 0.8
  gsp ag: -20%
  Six1-Eya2 blk: 2
  CtBP-E1A blk: -7
  D2 potentiator: -14
compound: CSc1ccccc1NC(=O)CN(C)Cc1ccc(Br)cc1
  gsp antag: ?
  D2 ag: -4.1
  gsp ag: 28%[15.4 µM]
  Six1-Eya2 blk: 20
  CtBP-E1A blk: 20
  D2 potentiator: -17
compound: COc1cc(C(=O)Nc2nc3ccccc3s2)ccc1OCc1c(C)noc1C
  gsp antag: 18%
  D2 ag: -2.2
  gsp ag: -69%[inhibitor]
  Six1-Eya2 blk: -7
  CtBP-E1A blk: -9
  D2 potentiator: -12
compound: CCSc1nnc(NC(=O)NC(C)(C(F)(F)F)C(F)(F)F)s1
  gsp antag: -11%
  D2 ag: 3.7
  gsp ag: -18%
  Six1-Eya2 blk: 3
  CtBP-E1A blk: 6
  D2 potentiator: -11

The listing continues:
SMILES	gsp antag	D2 ag	gsp ag	Six1-Eya2 blk	CtBP-E1A blk	D2 potentiator
COc1ccccc1-c1nc(C#N)c(N2CC(C)CC(C)C2)o1 (stereo not drawn)	-9%	-2.5	-64%[inhibitor]	-12	/	-2
COc1ccc(S(=O)(=O)N2CCCCC2)cc1N(C)S(=O)(=O)c1ccccc1	-9%	-0.1	-44%[inhibitor]	6	0	-5
O=C(CCN1C(=O)S/C(=C\c2cccs2)C1=O)Nc1nccs1	10%	-1.1	-17%	14	1	-4
COc1ccc(N2CCN(C(=O)CCNS(=O)(=O)c3ccc(C)cc3)CC2)cc1	0%	-6.5	-59%[inhibitor]	-5	5	0
NS(=O)(=O)c1ccc(CNC(=O)c2ccc(Br)o2)cc1	13%	-3.6	-4%	2	2	-20
CN1CCOc2c1cnn(CCO)c2=O	/	-1.4	/	1	6	1
Cc1ccc(S(=O)(=O)N2CCN(C(=O)CSc3nnc(-c4ccco4)o3)CC2)cc1	-4%	0.6	-5%	-1	4	4
O=C(Nc1cccc(NC(=O)c2cccc([N+](=O)[O-])c2)n1)c1cccc([N+](=O)[O-])c1	-6%	-2.0	2%	2	/	8
COc1cc(-c2nnc(COC(=O)CSc3cc(C)c4ccccc4n3)o2)cc(OC)c1OC	-6%	-3.3	23%	-15	-10	-4
CCOC(=O)N1CCN(C(=O)c2ccc3c(=O)n(CCc4ccccc4)c(=S)[nH]c3c2)CC1	-18%	-1.4	-25%	1	7	28
COc1ccc(/C=N/N(C)C2=NS(=O)(=O)c3ccccc32)cc1OC	-1%	-0.3	?	-68*	-89*	-1
COc1ccc(-n2c(C)cc(C=O)c2C)cc1Cl	0%	-3.7	-32%[inhibitor]	-19	-7	-13
CCCCNC(=O)c1nc(C2CCN(S(=O)(=O)c3c(F)cccc3F)CC2)oc1-c1cccc(C(F)(F)F)c1	/	1.7	/	3	2	3
Cc1noc(C)c1NC(=O)N(C)C[C@H]1OCCCC[C@@H](C)Oc2ccc(NS(=O)(=O)c3ccccc3)cc2C(=O)N([C@H](C)CO)C[C@@H]1C	/	-8.7	-25%	-5	6	2
Cc1ccc2nc(-c3sc4nc(C)cc(C)c4c3N)[nH]c2c1	-4%	-5.1	?	-1	0	-9
CC(C)OP(=O)(c1ccc(N(C)C)cc1)C(O)c1ccccc1 (stereo not drawn)	-5%	-2.7	-55%[inhibitor]	4	4	-3
COCc1[nH][nH]c(=O)c1C=Nc1ccc(Cl)cc1	10%	-3.3	0%	7	4	3
CCC1Sc2ccccc2N(CC(=O)NC2CCCCC2)C1=O (stereo not drawn)	12%	-6.2	-4%[15.4 µM]	-16	-9	-18
COc1ccc(NC(=S)N2CCc3cc(OC)c(OC)cc3C2)cc1	-14%	-3.6	-44%	-14	-2	-5
COc1ccc(OC)c(Nc2nc(N)nc(-c3cc4ccccc4o3)n2)c1	-10%	0.3	5%	2	-3	3
COC(=O)c1ccc(CSC(=N)N)o1	6%	-4.1	8%[15.4 µM]	8	-10	-7
CN(CC(=O)Nc1cccc(F)c1)C(=O)c1sc2ccccc2c1Cl	-17%	1.3	-4%	-1	/	-5
O=[N+]([O-])c1cccc(C=Nc2cc3c(cc2Br)OCCO3)c1	3%	-3.9	?	-3	25	-15
OC[C@@H]1CN(CCN2CCOCC2)C[C@H](n2cnc3c(NC4CC4)ncnc32)O1	/	-5.1	/	-10	-14	-13
COc1ccc(OCC#CCn2ccnc2)cc1	1%	3.4	-49%[inhibitor]	16	/	-8
Cc1c(N/C(=N/S(=O)(=O)c2ccccc2)c2ccc(Cl)cc2)c(=O)n(-c2ccccc2)n1C	9%	-1.1	11%	8	-18	7
COc1cccc(OCCNC(=O)c2cc(OC)c(OC)c(OC)c2)c1	0%	0.6	8%	-13	0	-8
CC(C)n1cnc2c(NCc3ccccc3)cc(Cc3ccc(F)cc3)cc21	-12%	-0.9	/	-29	-24	-17
COc1cc(NC(=O)C2CCCN(c3ncnc4c3nc3n4CCCCC3)C2)cc(OC)c1OC (stereo not drawn)	-10%	3.8	-2%	0	-22	18
O=C(N/N=C/c1sc(N2CCOCC2)nc1-c1ccccc1)c1ccccc1F	3%	-0.5	6%[15.4 µM]	0	-11	-3
